# Vaccinia inh – Vaccinia orthopox stage-specific inhibition; activity change (mCherry), % (no concentration beside the values); AID 1053133; Vaccinia-infected cells, mCherry/Venus stage reporter fluorescence; stronger effect = lower value; some inactives read as strong as hits; actives 0.01% (n = 89,000);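 active = mCherry past -33% and 40 or more points under the early reporter, replicates agreeing; inconclusive = past -33% without that gap or agreement; tested in A549 cells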;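 also: scaled between vehicle wells and reference inhibitor wells; 23 nL library stock went into each well; one replicate is shown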
# Vaccinia inh Venus – recorded beside Vaccinia inh, whose call it bears; activity change (Venus), %; measured here: Venus reporter, other viral stage;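 negative = less Venus signal; first of two replicates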
# * hit, by the source's call; u = inconclusive; x = not tested or not shown; & = joins results of further samples. Not all compounds are listed; count on the stated rates, not on these rows.
# Preview:
SMILES,Vaccinia inh,Vaccinia inh Venus
C[C@@H]1CN([C@H](C)CO)S(=O)(=O)c2ccc(C#CCN(C)C)cc2O[C@H]1CN(C)Cc1ccc(F)cc1,u,x
C[C@@H]1CN([C@H](C)CO)S(=O)(=O)c2ccc(C#CC3CC3)cc2O[C@@H]1CN(C)C(=O)c1cccc(F)c1,-16,-18
CCNC(=O)C[C@H]1CC[C@@H]2[C@@H](COc3ccc(NC(=O)c4cccc(OC)c4)cc3C(=O)N2C)O1,2,-1
C[C@@H]1CN([C@@H](C)CO)S(=O)(=O)c2ccc(-c3ccccc3)cc2O[C@H]1CN(C)S(=O)(=O)c1ccccc1F,u,x
C[C@H]1CCCCO[C@@H](CN(C)C(=O)CCCN(C)C)[C@@H](C)CN([C@@H](C)CO)C(=O)c2cc(NS(=O)(=O)c3ccccc3)ccc2O1,63,24
COCC(=O)N(C)C[C@H]1Oc2cc(C#CC(C)(C)O)ccc2S(=O)(=O)N([C@H](C)CO)C[C@H]1C,3,-4

# The list itself, from the start:
SMILES,Vaccinia inh,Vaccinia inh Venus
C[C@@H]1CN([C@H](C)CO)S(=O)(=O)c2ccc(C#CCN(C)C)cc2O[C@H]1CN(C)Cc1ccc(F)cc1,u,x
C[C@@H]1CN([C@H](C)CO)S(=O)(=O)c2ccc(C#CC3CC3)cc2O[C@@H]1CN(C)C(=O)c1cccc(F)c1,-16,-18
CCNC(=O)C[C@H]1CC[C@@H]2[C@@H](COc3ccc(NC(=O)c4cccc(OC)c4)cc3C(=O)N2C)O1,2,-1
C[C@@H]1CN([C@@H](C)CO)S(=O)(=O)c2ccc(-c3ccccc3)cc2O[C@H]1CN(C)S(=O)(=O)c1ccccc1F,u,x
C[C@H]1CCCCO[C@@H](CN(C)C(=O)CCCN(C)C)[C@@H](C)CN([C@@H](C)CO)C(=O)c2cc(NS(=O)(=O)c3ccccc3)ccc2O1,63,24
COCC(=O)N(C)C[C@H]1Oc2cc(C#CC(C)(C)O)ccc2S(=O)(=O)N([C@H](C)CO)C[C@H]1C,3,-4
C[C@H]1CN([C@@H](C)CO)C(=O)Cc2cc(NC(=O)CCC(F)(F)F)ccc2O[C@@H]1CN(C)C,12,14
O=C(c1cnccn1)N1CC(=O)N2[C@@H](CO)[C@@H](c3ccc(-c4ccc(F)cc4)cc3)[C@@H]2C1,3,-4
C[C@H](CO)N1C[C@H](C)[C@H](CN(C)CC2CC2)Oc2ccc(NS(=O)(=O)c3cn(C)cn3)cc2CC1=O,10,13
Cc1ccc(S(=O)(=O)N(C)C[C@@H]2Oc3ccc(NC(=O)c4ccncc4)cc3C(=O)N([C@@H](C)CO)C[C@H]2C)cc1,-1,1
COc1cccc(-c2ccc([C@H]3[C@@H](CO)N4C(=O)CN(C(=O)c5cccnc5)C[C@H]34)cc2)c1,-17,-10
O=C(Nc1ccc2c(c1)[C@H]1C[C@@H](CC(=O)N3CCOCC3)O[C@@H](CO)[C@H]1O2)Nc1ccccc1F,14,12
CO[C@@H]1CN(C)C(=O)c2cc(NS(=O)(=O)c3ccc(Cl)cc3)ccc2OC[C@H](C)NC[C@@H]1C,5,10
CC(C)NC(=O)Nc1ccc2c(c1)C(=O)N([C@H](C)CO)C[C@H](C)[C@@H](CN(C)C(=O)Nc1cccc3ccccc13)OCCCC[C@H](C)O2,14,17
CC(C)NC(=O)N1C[C@@H]2[C@H](c3ccccc31)[C@@H](CO)N2C(=O)Nc1ccc(F)cc1,-17,-8
CC(C)C#Cc1ccc([C@@H]2[C@@H](CO)N3CCCCN(C(=O)Nc4ccccc4)C[C@@H]23)cc1,u,x
C[C@@H]1CN([C@H](C)CO)C(=O)c2cc(NC(=O)Nc3ccccc3)ccc2O[C@H]1CN(C)S(=O)(=O)c1cn(C)cn1,14,5
C[C@@H]1CN([C@@H](C)CO)C(=O)c2cc(NS(=O)(=O)c3ccc(F)cc3)ccc2O[C@@H](C)CCCCO[C@@H]1CN(C)C,1,7
CC=Cc1ccc2n(c1=O)C[C@H]1[C@H](CO)[C@@H](C(=O)NCCc3cn(C)cn3)N(C(=O)C3CCC3)[C@@H]21 (mixture of isomers),-5,4
COc1cccc(NC(=O)C[C@H]2CC[C@@H]3[C@@H](COc4ccc(NC(=O)C5CCCC5)cc4C(=O)N3C)O2)c1,-8,9
C[C@H]1CN([C@@H](C)CO)C(=O)Cc2cc(NC(=O)Nc3ccc4c(c3)OCO4)ccc2O[C@H]1CN(C)C(=O)NC1CCCCC1,13,5
CN(C)C(=O)C[C@H]1CC[C@@H](NC(=O)NC2CCCCC2)[C@H](CO)O1,6,1
C/C=C/c1ccc([C@H]2[C@@H](CO)N(CCC(F)(F)F)C23CN(C(C)=O)C3)cc1,-1,1
Cc1ccccc1S(=O)(=O)N(C)C[C@H]1OCc2cnnn2CCCC(=O)N([C@@H](C)CO)C[C@H]1C,-3&9,4&9
COc1ccc(NC(=O)Nc2ccc3c(c2)C(=O)N([C@@H](C)CO)C[C@H](C)[C@@H](CN(C)S(=O)(=O)c2cn(C)cn2)O3)cc1,21,15
C[C@H](CO)N1C[C@H](C)[C@@H](CN(C)C)Oc2ccc(NC(=O)c3ccncc3)cc2C1=O,6,0
C[C@H]1CN([C@@H](C)CO)C(=O)c2cccc(NS(=O)(=O)c3cccs3)c2O[C@H]1CN(C)S(C)(=O)=O,17,12
O=C(NC1CCCCC1)N1CC(=O)N2[C@H](CO)[C@H](c3ccc(-c4cccc(F)c4)cc3)[C@@H]2C1,-15,-27
COc1ccc(-c2ccccc2[C@@H]2[C@@H](CO)N(C(=O)C3CC3)[C@H]2C#N)cc1,1,-5
O=C(NCC[C@@H]1CC[C@@H](NS(=O)(=O)c2cccc(F)c2)[C@H](CO)O1)c1cnccn1,1,9
COc1ccc(S(=O)(=O)Nc2ccc3c(c2)C(=O)N([C@@H](C)CO)C[C@H](C)[C@H](CN(C)C(=O)NC(C)C)O3)cc1,12,10
C[C@H]1CN([C@@H](C)CO)C(=O)c2cccc(NC(=O)CCCCCC(=O)Nc3ccccc3N)c2O[C@H]1CN(C)S(=O)(=O)c1ccc(F)cc1,-13,-12
O=C(c1ccccc1F)N1C[C@@H]2O[C@H](CNS(=O)(=O)c3ccccc3)CC[C@@H]21,1,2
C[C@@H]1CN([C@H](C)CO)C(=O)c2cc(NS(C)(=O)=O)ccc2O[C@H]1CN(C)C(=O)NC1CCCCC1,1,-1
C[C@@H]1CN([C@@H](C)CO)C(=O)c2cc(C3=CCCCC3)cnc2O[C@H]1CN(C)Cc1cccnc1,11,7
COCC(=O)Nc1ccc2c(c1)C(=O)N(C)C[C@@H](OC)[C@H](C)CN(CC1CC1)[C@H](C)CO2,-9,-3
C[C@H]1CN([C@@H](C)CO)C(=O)c2cc(C#CC(C)(C)O)cnc2O[C@H]1CN(C)C(=O)CN(C)C,14,11
CC(=O)N[C@H]1CC[C@H](CCNC(=O)Nc2ccc(C(F)(F)F)cc2)O[C@H]1CO,-9,1
C[C@@H]1CCCCO[C@@H](CN(C)S(=O)(=O)c2ccc(F)cc2)[C@H](C)CN([C@@H](C)CO)C(=O)c2cc(NS(=O)(=O)c3ccc(Cl)cc3)ccc2O1,u,x
COc1ccc(-c2ccc([C@H]3[C@H](CO)N4CCCCN(C(=O)NC(C)C)C[C@@H]34)cc2)cc1,-3,-2
COCC(=O)N(C)C[C@@H]1Oc2cc(-c3ccncc3)ccc2S(=O)(=O)N([C@H](C)CO)C[C@H]1C,13,6
C[C@@H]1CN([C@H](C)CO)C(=O)c2cc(NC(=O)CCN3CCOCC3)ccc2O[C@@H]1CN(C)S(=O)(=O)c1ccc(Cl)cc1,5,6
C[C@@H]1CN([C@H](C)CO)S(=O)(=O)c2ccc(-c3ccccc3)cc2O[C@@H]1CN(C)Cc1cncnc1,-23,-22
CCNC(=O)C[C@H]1CC[C@H](NC(=O)NC2CCCCC2)[C@H](CO)O1,2,7
COc1ccc(NC(=O)N(C)C[C@@H]2Oc3ncc(C#CCN(C)C)cc3C(=O)N([C@@H](C)CO)C[C@H]2C)cc1,16,9
C[C@H](CO)N1C[C@H](C)[C@@H](CN(C)C(=O)Nc2cccc(F)c2)Oc2ncc(Br)cc2C1=O,28,18
CC(C)NC(=O)N1CCCCN2[C@H](C1)[C@@H](c1ccc(C#CC3CC3)cc1)[C@@H]2CO,-24,-15
Cc1noc(C)c1NC(=O)N(C)C[C@H]1Oc2ncc(C#CC3CCCC3)cc2C(=O)N([C@@H](C)CO)C[C@@H]1C,11,4

# Brought forward from above: four compounds, followed by the next part.
SMILES,Vaccinia inh,Vaccinia inh Venus
COc1ccc(NC(=O)N(C)C[C@@H]2Oc3ncc(C#CCN(C)C)cc3C(=O)N([C@@H](C)CO)C[C@H]2C)cc1,16,9
C[C@H](CO)N1C[C@H](C)[C@@H](CN(C)C(=O)Nc2cccc(F)c2)Oc2ncc(Br)cc2C1=O,28,18
CC(C)NC(=O)N1CCCCN2[C@H](C1)[C@@H](c1ccc(C#CC3CC3)cc1)[C@@H]2CO,-24,-15
Cc1noc(C)c1NC(=O)N(C)C[C@H]1Oc2ncc(C#CC3CCCC3)cc2C(=O)N([C@@H](C)CO)C[C@@H]1C,11,4
O=C(CN1CCOCC1)NCC[C@@H]1CC[C@@H](NC(=O)Nc2ccc(Cl)cc2)[C@@H](CO)O1,20,14
C[C@@H]1CN([C@@H](C)CO)C(=O)c2cc(NC(=O)Cc3ccccc3)ccc2O[C@H]1CN(C)Cc1ccncc1,2,-6
N#C[C@H]1N[C@H](CO)[C@@H]1c1ccc(C#Cc2cccnc2)cc1,12,2
O=C(C1CCCCC1)N1CC2(C1)[C@@H](c1ccccc1)[C@@H](CO)N2Cc1cncnc1,11,5
COc1ccc(NC(=O)N2CCCCN3[C@H](CO)[C@@H](c4ccc(C5=CCCC5)cc4)[C@H]3C2)cc1,u,x
COc1ccc(S(=O)(=O)Nc2ccc3c(c2)C(=O)N([C@@H](C)CO)C[C@@H](C)[C@H](CN(C)C(=O)Nc2ccccc2)OCCCC[C@@H](C)O3)cc1,12,3
O=C(C[C@H]1CC[C@@H]2[C@H](COC[C@@H](O)CN2Cc2ccc(F)cc2)O1)N1CCc2ccccc2C1,-11,2
CO[C@H]1CC[C@@H]2CCOc3c(C#N)cccc3C(=O)N(C)C[C@@H](OC)[C@@H](C)C(=O)N(C)C[C@H]1O2,24,15
C[C@H](CO)N1C[C@H](C)[C@H](CN(C)C)Oc2ncc(-c3cccc(C#N)c3)cc2C1=O,12,6
C[C@@H]1CN([C@H](C)CO)C(=O)c2cccc(NC(=O)C3CCOCC3)c2O[C@H]1CN(C)S(=O)(=O)c1cn(C)cn1,4,-1
Cc1noc(C)c1NC(=O)Nc1ccc2c(c1)CC(=O)N([C@H](C)CO)C[C@H](C)[C@H](CN(C)C(=O)Nc1cccc3ccccc13)O2,-1,13
C[C@@H]1CN([C@@H](C)CO)C(=O)c2cc(NC(=O)c3ccncc3)ccc2O[C@@H](C)CCCCO[C@@H]1CN(C)C,12,6
N#C[C@H]1[C@H](c2ccc(C#CC3CCCC3)cc2)[C@@H](CO)N1C(=O)Cc1ccccn1,-33,-22
C[C@H]1CN([C@@H](C)CO)S(=O)(=O)c2ccc(-c3ccc(C#N)cc3)cc2O[C@H]1CN(C)Cc1cccc(F)c1,-25,-19
COc1cccc(C#Cc2cnc3c(c2)C(=O)N([C@@H](C)CO)C[C@H](C)[C@H](CN(C)C(=O)C2CC2)O3)c1,8,-9
CCS(=O)(=O)N1CC2(C1)[C@@H](c1ccccc1)[C@@H](CO)N2C(=O)C1CCCC1,9,13
COc1ccc(S(=O)(=O)N(C)C[C@H]2OCCCC[C@H](C)Oc3ccc(NS(=O)(=O)c4cccs4)cc3C(=O)N([C@H](C)CO)C[C@@H]2C)cc1,u,x
CNC(=O)C[C@@H]1CC[C@@H]2[C@H](COc3ccc(NS(=O)(=O)c4ccccc4C)cc3C(=O)N2C)O1,-6,-13
C[C@@H]1CN([C@@H](C)CO)S(=O)(=O)c2ccc(-c3cncnc3)cc2O[C@@H]1CN(C)C,31,8
C[C@@H]1CN([C@H](C)CO)C(=O)c2cc(-c3ccccc3)cnc2O[C@@H]1CN(C)Cc1ccccc1,18,18
N#C[C@@H]1N[C@H](CO)[C@@H]1c1ccc(C#CC2CCCC2)cc1,9,14
C[C@@H]1CCCCO[C@@H](CN(C)C(=O)c2ccncc2)[C@@H](C)CN([C@@H](C)CO)C(=O)c2cc(NS(=O)(=O)c3ccccc3)ccc2O1,13,1
C[C@@H]1CCCCO[C@H](CN(C)S(=O)(=O)c2ccc(Cl)cc2)[C@@H](C)CN([C@H](C)CO)C(=O)c2cc(NC(=O)C3CCCCC3)ccc2O1,5,2
O=C(NCC[C@H]1CC[C@H](NS(=O)(=O)c2cccc(F)c2)[C@@H](CO)O1)C1CCOCC1,2,-3

# Full records, quoted from the list.
# C[C@@H]1CN([C@@H](C)CO)C(=O)c2cc(NC(=O)Cc3ccccc3)ccc2O[C@H]1CN(C)Cc1ccncc1 is entered as Vaccinia inh = 2; Vaccinia inh Venus = -6
# C[C@@H]1CCCCO[C@@H](CN(C)C(=O)c2ccncc2)[C@@H](C)CN([C@@H](C)CO)C(=O)c2cc(NS(=O)(=O)c3ccccc3)ccc2O1 is entered as Vaccinia inh = 13; Vaccinia inh Venus = 1

# Other entries:
SMILES,Vaccinia inh,Vaccinia inh Venus
C[C@H]1CN([C@@H](C)CO)C(=O)c2cc(NC(=O)Nc3ccc4c(c3)OCO4)ccc2O[C@H]1CN(C)S(=O)(=O)c1cccs1,2,11
CO[C@H]1CN(C)C(=O)c2cc(NS(=O)(=O)c3c(C)noc3C)ccc2OC[C@H](C)NC[C@@H]1C,4,2
CCc1sc(N2[C@H](C#N)[C@H](c3ccccc3-c3ccccc3)[C@H]2CO)nc1C,-25,-18
O=C(C[C@@H]1C=C[C@H](NC(=O)c2ccc(F)cc2)[C@H](CO)O1)NCCc1ccncc1,-10,-3
CCCC#Cc1ccc2c(c1)O[C@@H](CN(C)C(=O)c1cccnc1)[C@@H](C)CN([C@@H](C)CO)S2(=O)=O,4,1

# Bioassay records (PubChem BioAssay)
